# High-throughput results as filed in PubChem BioAssay.
# MgrA-DNA mod – modulators of Staphylococcus aureus MgrA DNA binding. fluorescence polarization. inhibition, %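 (about 10 µg/mL by stock and volumes)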. actives 0.13% (n = 84,000). AID 602314;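 active means above 50% in either of two replicates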;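 further: 0% = protein plus DNA without compound and 100% = DNA alone without protein; higher means less MgrA bound to DNA so lower polarization; one replicate is shown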
# S aureus helic – S. aureus DNA helicase inhibition. purified S. aureus helicase, fluorescence unwinding assay; about half of the hits fall short of the stated cut. inhibition, %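 (tested at about 80 µM)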. actives 0.05% (n = 120,000). AID 485395;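 active means both duplicates at 50% or more, or one of them with a favoured structure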;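 further: 0% = mean of negative control wells and 100% = mean of positive control wells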
# The depositor's hits bear a star; . = no result given. A portion of the library (hit frequency here may not be typical).
# Under each structure: MgrA-DNA mod	S aureus helic
CCOC(=O)N1CCN(C(=O)c2oc3ccc(S(=O)(=O)N(CC)CC)cc3c2C)CC1
→ .	37
N#Cc1cccnc1N1CCC(C(N)=O)CC1
→ 2.3	.
O=C(CSc1ncccc1C(=O)O)c1cc2ccccc2o1
→ -1.1	.
CC1CN(C(=O)CCSc2ccc(Cl)cc2)CC(C)O1 (stereo unspecified)
→ 3.1	-1
COc1cc2c(cc1O)[C@@H](Cc1ccc(O)cc1)[N+](C)(C)CC2
→ 4.0	.
O=C(NCc1cccnc1)C1CCCCC1
→ -5.2	19
CCOC(=O)COc1ccccc1CS(=O)(=O)c1ccc(Cl)cc1
→ -1.5	.
Cc1ccc(C2=NNC(=O)CC2)cc1C
→ -6.2	13
Cc1ccc(OCC(=O)NCCc2ccccc2)cc1
→ .	-7
COc1ccc(NC(=O)C2CC(=O)N(CCc3ccc(OC)c(OC)c3)C(=Nc3ccccc3)S2)cc1 (stereo unspecified)
→ 1.1	.

# One compound at a time (already shown). Values in the order: MgrA-DNA mod | S aureus helic
# `Cc1ccc(OCC(=O)NCCc2ccccc2)cc1` as listed: . | -7
# `COc1cc2c(cc1O)[C@@H](Cc1ccc(O)cc1)[N+](C)(C)CC2` as listed: 4.0 | .
# `CC1CN(C(=O)CCSc2ccc(Cl)cc2)CC(C)O1` (stereo unspecified) as listed: 3.1 | -1
# `Cc1ccc(C2=NNC(=O)CC2)cc1C` as listed: -6.2 | 13
# `N#Cc1cccnc1N1CCC(C(N)=O)CC1` as listed: 2.3 | .

# Carrying on.
# Under each structure: MgrA-DNA mod	S aureus helic
Cc1ccc(-c2csc3nnc(SCc4ccc5c(c4)OCO5)n23)cc1
→ -1.5	11
FC(F)(F)c1ccc(-c2nc(-c3ccc(Cl)cc3)cs2)nc1
→ -0.9	.
COc1cc2ncnc(NCCCn3ccnc3)c2cc1OC
→ -1.9	.
CC(=O)Nc1cc2c(cc1N)OCCO2
→ 4.7	15
COc1ccc(N2CCCC2=O)cc1
→ 1.1	.
O=C(NCc1ccco1)c1ccc(-c2cc3ccccc3oc2=O)cc1
→ 11	17
CN1C(=O)N(C)C2(O)c3ccccc3/C(=N\N=C(N)N)C12O (stereo unspecified)
→ .	1
CC(C)CC(C(=O)Nc1ccccc1)N1Cc2ccccc2C1=O (stereo unspecified)
→ .	-22
CCCc1nc2ccccc2n1CC(=O)O
→ -4.0	2
FC(F)(F)c1ccc(-c2nnc(C3CC3)o2)cc1
→ -0.8	.
Cc1cccc(NC(=O)NCC2CC2)c1
→ .	18
NC(=O)CSc1ccc2nnc(-c3ccccc3)n2n1
→ .	-19
CCN(CC)S(=O)(=O)c1ccc2oc(SCc3cn4ccsc4n3)nc2c1
→ .	-12
O=C(NCC1CCCO1)c1ccc2c(=O)n(-c3ccccc3)c(=S)[nH]c2c1 (stereo unspecified)
→ 3.8	8
O=C1CC(Nc2ccc(F)cc2)C(=O)N1C1CCCC1 (stereo unspecified)
→ 0.9	7
Cc1cc(=O)[nH]c2c(C)c(Cl)ccc12
→ -0.2	-5
O=C(O)CNC(=O)C1CCCCC1
→ -3.5	12
FC(F)(F)c1cc(N2CCN(Cc3ccccc3)CC2)c2ccccc2n1
→ -1.0	.
Cc1[nH]nc2c1/C(=N\O)CC(c1ccccc1)C2 (stereo unspecified)
→ 0.5	47
Cc1ccc(/C=C/C(=O)Nc2ccc(-c3nnc4n3CCCCC4)cc2)o1
→ .	1
N#CC1=C(N)Oc2cc(N)ccc2C1c1ccccc1 (stereo unspecified)
→ -1.0	-8
Cc1cc(Nc2ccc(C(=O)N3CCN(c4ccccn4)CC3)cc2)n2ncnc2n1
→ .	-7
COC(=O)c1ccc(Cl)cc1NS(=O)(=O)c1ccc(C)cc1
→ 0.4	.
C=CCn1c(=O)/c(=C\c2cccs2)s/c1=C(/C#N)C(=O)N1CCCC1
→ .	8
N#C/C(=C/c1ccc(-c2cccc(C(F)(F)F)c2)o1)C(=O)OC1CCCCC1
→ -1.2	10
CN(Cc1nc2ccccc2n1C)CC1CCCCC1
→ 6.3	9
N#C/C(=C\c1ccc(C(F)(F)F)cc1)c1csc2ccccc12
→ 1.5	.
CCOC(=O)C1=C(CN2c3ccccc3CC2C)NC(=O)NC1c1ccccc1 (stereo unspecified)
→ -14	14
COc1cc(C2C(C#N)=C(N)Oc3c2c(C)nn3-c2ccccc2)cc(OC)c1OC (stereo unspecified)
→ -0.8	.
COC(=O)c1cc(S(=O)(=O)N2CCCCC2C)c[nH]1 (stereo unspecified)
→ .	-23
O=C(O)CSc1nc(-c2ccccc2)cc(C(F)F)n1
→ -2.3	6
N#CCc1nc(-c2ccc(C(F)(F)F)cc2)cs1
→ -4.4	.
NC(=O)c1ccccc1NC(=O)CC1(CC(=O)O)CCCC1
→ -3.0	-7
O=S(=O)(CCSc1ccc(C(F)(F)F)cn1)c1ccc(OC(F)(F)F)cc1
→ -0.9	.
CCN(CC)c1ccc2cc(C(N)=O)c(=Nc3cccc(C)c3)oc2c1
→ 5.3	0
C=C(C)C(=O)Nc1ccc(Oc2ccc(F)cc2)nc1
→ 0.2	.
CC(Sc1nnc(-c2cccc(S(=O)(=O)N3CCCC3)c2)n1-c1ccccc1)C(N)=O (stereo unspecified)
→ .	-5
Cc1ccc(C2CC(C(F)(F)F)n3nc(C(=O)Nc4c(C)n(C)n(-c5ccccc5)c4=O)cc3N2)cc1 (stereo unspecified)
→ -0.6	.
COC(=O)c1ccccc1SNc1ccccc1C
→ 4.6	7
NC(=O)CSc1nc2ccc(Cl)cc2[nH]1
→ -0.8	17
CC(=O)Nc1ccccc1-c1n[nH]c(=S)[nH]c1=O
→ -0.8	-1
O=C(Cn1cnnn1)Nc1nccs1
→ .	11
CCCCN1C(=O)C2ON(c3ccccc3)C(c3cc(Br)ccc3O)C2C1=O (stereo unspecified)
→ .	-21
O=c1c2c3c(sc2nc(SCCO)n1-c1ccccc1)CCCC3
→ .	-7
Cc1cc(NCCO)c2cc(O)ccc2n1
→ -0.3	-1
CCC(Oc1ccccc1)C(=O)N1C(=O)c2cccc(N)c2C1=O (stereo unspecified)
→ .	1
CCC(C)C(NC(=O)C1CCC(C)CC1)C(=O)NCc1cccnc1 (stereo unspecified)
→ .	43
O=C(OCc1nnc(-c2ccc(Cl)cc2)o1)C1=NN(c2ccccc2)C(=O)CC1
→ .	-3
COc1cccc(/C=N/NC(=S)NCCc2ccccc2)c1OC
→ -1.2	.
O=S(=O)(/N=c1/cc(-c2ccccc2)ss1)c1ccccc1
→ 0.2	-3

# Filtered by structure, the compounds so far containing a furan ring, fused or not (five)
# Under each structure: MgrA-DNA mod	S aureus helic
CCOC(=O)N1CCN(C(=O)c2oc3ccc(S(=O)(=O)N(CC)CC)cc3c2C)CC1
→ .	37
O=C(CSc1ncccc1C(=O)O)c1cc2ccccc2o1
→ -1.1	.
O=C(NCc1ccco1)c1ccc(-c2cc3ccccc3oc2=O)cc1
→ 11	17
Cc1ccc(/C=C/C(=O)Nc2ccc(-c3nnc4n3CCCCC4)cc2)o1
→ .	1
N#C/C(=C/c1ccc(-c2cccc(C(F)(F)F)c2)o1)C(=O)OC1CCCCC1
→ -1.2	10

# Next structures.
# Under each structure: MgrA-DNA mod	S aureus helic
CC1CCN(c2nnc(NC(=O)c3csc4c3CCCC4)s2)CC1
→ 9.8	7
COC(=O)C1CCN(c2ccc(Cl)nn2)CC1
→ .	7
c1csc(-c2nc(CN3CCSCC3)cs2)c1
→ -0.9	.
N#Cc1cc(C#N)c(SCC(=O)NCc2ccco2)nc1N
→ 4.0	5
COc1ccc(C(=O)N2c3ccccc3N3C(c4c(C)cc(C)cc4C)=NON23)cc1
→ 2.5	9
NNC(=O)c1ccc(OC2OCCOC2Oc2ccc(C(=O)NN)cc2)cc1 (stereo unspecified)
→ .	2
Cn1c(=O)[nH]c(=O)c2c1nc(N1CCN(CC(N)=O)CC1)n2Cc1ccccc1F
→ .	6
Cc1nc2c(cnn2-c2ccccc2)c(=O)o1
→ 4.2	.
CC1(C)CC(NC(=O)c2ccccc2C(=O)NC2CC(C)(C)NC(C)(C)C2)CC(C)(C)N1
→ -0.7	14
CCOC(=O)c1noc2ncnc(N3CCc4cc(OC)c(OC)cc4C3C)c12 (stereo unspecified)
→ .	11
Cc1ccc(C2(CCN=Cc3ccccc3)CCOC(C)(C)C2)cc1 (stereo unspecified)
→ 1.5	-12
COC(=O)Nc1scc(-c2ccccc2)c1C(=O)NCc1ccco1
→ -0.5	13
CN1c2ccccc2CC(C#N)(C#N)C12CCCCC2
→ .	-41
CC(NCc1nc2cc(Cl)ccc2c(=O)[nH]1)C1CC2CCC1C2 (stereo unspecified)
→ .	6
OC(Cn1cncn1)Cn1cncn1
→ .	-22
O=C1CC2CCC(CN1)N2S(=O)(=O)c1ccc(C(=O)O)cc1 (stereo unspecified)
→ -30	18
CC1CCCCN1C(=O)Cn1nnc2c(cnn2-c2ccccc2)c1=O (stereo unspecified)
→ -2.8	8
CC1=C(C(=O)N2CCOCC2)C(c2ccccc2OC(C)C)C2=C(CCCC2=O)N1 (stereo unspecified)
→ .	3
CNC(=S)N1CCc2ccccc21
→ .	3
CCCCc1cc2c(=O)c(-c3cc4ccccc4o3)coc2cc1O
→ .	6
CC(C)c1ccc(Nc2s[nH]c(=O)c2C#N)cc1
→ 13	.
N#CC(C(=O)N1CCOCC1)C(=S)Nc1ccccc1Cl (stereo unspecified)
→ 8.2	.
O=C(NCCN1CCOCC1)c1cc2sccc2n1Cc1ccc(Cl)cc1
→ .	20
S=C(Nc1ccccc1)N1CCN(c2ccccc2)CC1
→ 0.9	7
Cc1ccc(-c2n[nH]c(=S)[nH]c2=O)cc1
→ .	-5
Cc1nnsc1-c1nnc(-c2cccc3ccccc23)o1
→ -10.0	.
OCc1csc(=Nc2ccccc2)n1-c1ccccc1
→ -2.0	-12
Cc1[nH]c2ccccc2c1C(O)c1ccncc1 (stereo unspecified)
→ 3.8	0
CCCCOc1ncnc2ncn(CCCl)c12
→ 0.2	.
CCc1nc2oc(C(=O)c3ccc(Cl)cc3)c(N)c2c2c1COC(C)(C)C2
→ .	-4
NS(=O)(=O)c1ccc(N(S(=O)(=O)c2ccccc2)S(=O)(=O)c2ccccc2)cc1
→ 0.1	.
CCC(C(=O)NCc1ccc2[nH]c(C)cc2c1)c1ccccc1 (stereo unspecified)
→ .	0
C/C(=N\NC(N)=S)C1Cc2ccccc2C(=O)O1 (stereo unspecified)
→ .	-19
CSc1nc(NC2CCCCC2)c(C#N)c(-c2ccccc2)n1
→ .	-3
COc1ccc(/C(=N/O)C(C)C)cc1
→ 0.2	.
CCn1c(COc2cc(C)ccc2C)nnc1SC(C)C(=O)Nc1ccc2c(c1)OCO2 (stereo unspecified)
→ -2.9	-7
COc1ccccc1N1CCN(S(=O)(=O)c2ccc3[nH]cc(C(=O)O)c(=O)c3c2)CC1
→ 3.7	9
CCOC(=O)Nc1c[nH]c2c(C)cccc2c1=O
→ 0.3	0
COc1ccccc1OCCNC(=O)c1ccc(S(C)(=O)=O)cc1
→ .	-4
CN(C)c1ccc2c3c(cccc13)C(=O)N(c1nc3ccccc3[nH]1)C2=O
→ 9.9	.
S=c1[nH]nc(COc2ccccc2)n1/N=C/c1cccnc1
→ 15	14
Cc1ccc(C(=O)OCC(=O)Nc2c(F)c(F)c(F)c(F)c2F)s1
→ -4.6	4
CCN(CC)C(=S)Oc1ccccc1C(=O)Nc1ccc(Cl)c(Cl)c1
→ -0.9	.
CC1=C(C(=O)OCCOc2ccccc2)C(c2ccc(O)c([N+](=O)[O-])c2)NC(=O)N1 (stereo unspecified)
→ 2.4	.
Cc1cccc(C(=O)N/N=C/c2ccc3c(c2)n(C)c(=O)n3C)c1
→ .	-26
NC(=O)C1CCN(C(=O)C2c3ccccc3C(=O)N3CCc4ccccc4C23)CC1 (stereo unspecified)
→ .	-26
CC(=O)N1CCc2cc(S(=O)(=O)NC(CC(C)C)C(=O)N(C)Cc3ccccc3)ccc21 (stereo unspecified)
→ .	-30
CC(Sc1nnc(-c2ccncc2)n1C)C(=O)NC(N)=O (stereo unspecified)
→ .	-9
Cc1cc(C)cc(OCC(=O)OCC(=O)NC2CC2)c1
→ -1.5	-4
O=C(c1cncc(Br)c1)N(c1nccs1)C1CCCCC1
→ .	-15

# (further entries)
# Under each structure: MgrA-DNA mod	S aureus helic
COc1ccc(-n2nc(C(=O)NCC(=O)NCc3ccccn3)c3ccccc3c2=O)cc1
→ .	10
O=C(Cc1ccccc1)NCc1nc2ccccc2n1Cc1ccccc1F
→ .	-10
CC1=CC(=O)CC(C)(C)C1(O)/C=C/C(C)=C/C(=O)O (stereo unspecified)
→ .	-35
Cc1ccc(Nc2ccc(N3CCN(C(=O)CCc4ccccc4)CC3)nn2)cc1
→ .	-15
CCN(CC)C(=O)c1cc(-c2cccs2)nn1-c1ccccc1
→ .	20
NC(N)=N/N=C/c1ccc(O)c(Cl)c1
→ .	-12
Cc1cc(C)c(NC(=S)NCCO)c(C)c1
→ .	26
CN1C(=O)c2ccccc2N2C(=O)CCC12C(=O)O (stereo unspecified)
→ .	0
C=CCN1C(=O)/C(=C\c2ccc(Oc3nc(N4CCOCC4)nc(N4CCOCC4)n3)c(OC)c2)SC1=S
→ 0.2	.
CCN(CC)CCNc1nc2c(c(=O)n(C)c(=O)n2C)n1CCc1ccccc1
→ 3.3	-11
CCc1ccc2c(COC(=O)CSCc3c(C)noc3C)cc(=O)oc2c1
→ .	12
CCC(=O)NCc1ccc(-c2nc3ncccc3o2)cc1
→ -0.6	-1
Cc1ccsc1/C=N/NC(=O)C1C2CCCCC21 (stereo unspecified)
→ 3.2	10
COc1cccc(NC(=S)N(CCC#N)/N=C/c2ccc3c(c2)OCO3)c1
→ 4.1	.
